E coli growth = E. coli growth inhibition, primary screen, OD600; AID 1053175, 2014; OD600 absorbance (concentration not given with the values); Escherichia coli growth, 23 h; active compounds read low; actives 0.21% (n = 330,000);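 active = OD600 absorbance below the run mean of sample wells minus 3.6 SD, in any replicate, cut at about 0.56 in these data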;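 also: stock transfer was 300 nL into about 60 µL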
Beta2AR agonist = beta2AR agonists driving receptor internalization, primary screen, cell-based, FAP fluorogen, flow cytometry. response, % (concentration not given with the values). actives 0.43% (n = 340,000). AID 504454, 2011. Am2.2-beta2AR cells; reference of the scale not given here;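 active = response above a set limit, near 3 SD of response in nonfluorescent compounds, cut at about 42% in these data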;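 also: stock transfer was 100 nL into about 11 µL; a reference agonist was the positive control; negative values mostly stem from fluorescent compounds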
Bfl-1 A1 inh = caspase 3/7 activation in MEF A1-2A-BIM cells, primary screen, A1 inhibitor project, cell-based, luminescence, HTS; Caspase-Glo 3/7 luminescence, 3 h; percent of clofoctol response, vehicle zero; caspase activation, % (concentration not given with the values); actives 0.066% (n = 330,000);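 active = over half of replicate activation scores above 10%, or exactly half above 10 with the replicate mean above 10; inconclusive = replicate mean below 10 yet half the replicates above 10; inactive = over half of replicates below 10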;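 also: wells of about 30 µL received 50 nL stock; many hits fall short of the cut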
HNF4A DNA FP = change in binding of human HNF4A to DNA, primary screen, biochemical, fluorescence polarization, FITC-DNA; actives 0.3% (n = 360,000); 1 h; AID 1224865, 2016; activity change, % at 10 µM; Hepatocyte nuclear factor 4-alpha (Homo sapiens), P41235; in the data active = activity change above about 30%, passing the limit was not always enough;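 also: controls were the assay level and a saturating level of protein; the project sought stronger binding though the title names inhibitors; some compounds called inactive have numbers as strong as hits; positive values seem to mean higher polarization but the record does not say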
UCH37 inh = inhibitors of human UCH37 deubiquitinase, primary screen, biochemical, Ub-AMC cleavage, fluorescence. Ubiquitin carboxyl-terminal hydrolase isozyme L5 (Homo sapiens), Q9Y5K5. inhibition, % (no concentration beside the values). actives 0.33% (n = 330,000). purified proteasome/UCH37;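 active = mean of two replicates above 20%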;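 also: 0% = compound-free wells with enzyme and 100% = wells lacking proteasome; stock transfer was 100 nL into about 20 µL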
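System: Proteasome-associated human UCH37 deubiquitinase; Input: 0.15 nM proteasome in added enzyme buffer; Also added: Ub-AMC substrate from 1 µM stock; Incubation: 30 min compound-proteasome preincubation then 25 min substrate reaction, room temperature; Detection: fluorescence, ex 355 nm, em 460 nm; Read-out: % inhibition of Ub-AMC cleavage fluorescence; Benchmarks: no-proteasome and no-compound wells.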
LANA-H2A inh = blockers of LANA interaction with H2A/H2B – biochemical, FP readout, HTS, primary screen; Protein LANA1 (Human herpesvirus 8 type P (isolate GK18)), Q9QR71; cell-free LANA-H2A/H2B peptide, fluorescence polarization; inhibition, % (test concentration not listed); actives 0.6% (n = 320,000); AID 2629, 2010; in the data active = inhibition mostly above about 10%, no sharp cut-off; inactive = mostly below about 6.7%;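 also: stock transfer was 7.5 nL into about 10 µL; 0% = median of vehicle wells and 100% = median of positive control wells; one replicate is shown; the record names a cut of 25% in any replicate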
Target sequence (Q9QR71 whole entry, looked up): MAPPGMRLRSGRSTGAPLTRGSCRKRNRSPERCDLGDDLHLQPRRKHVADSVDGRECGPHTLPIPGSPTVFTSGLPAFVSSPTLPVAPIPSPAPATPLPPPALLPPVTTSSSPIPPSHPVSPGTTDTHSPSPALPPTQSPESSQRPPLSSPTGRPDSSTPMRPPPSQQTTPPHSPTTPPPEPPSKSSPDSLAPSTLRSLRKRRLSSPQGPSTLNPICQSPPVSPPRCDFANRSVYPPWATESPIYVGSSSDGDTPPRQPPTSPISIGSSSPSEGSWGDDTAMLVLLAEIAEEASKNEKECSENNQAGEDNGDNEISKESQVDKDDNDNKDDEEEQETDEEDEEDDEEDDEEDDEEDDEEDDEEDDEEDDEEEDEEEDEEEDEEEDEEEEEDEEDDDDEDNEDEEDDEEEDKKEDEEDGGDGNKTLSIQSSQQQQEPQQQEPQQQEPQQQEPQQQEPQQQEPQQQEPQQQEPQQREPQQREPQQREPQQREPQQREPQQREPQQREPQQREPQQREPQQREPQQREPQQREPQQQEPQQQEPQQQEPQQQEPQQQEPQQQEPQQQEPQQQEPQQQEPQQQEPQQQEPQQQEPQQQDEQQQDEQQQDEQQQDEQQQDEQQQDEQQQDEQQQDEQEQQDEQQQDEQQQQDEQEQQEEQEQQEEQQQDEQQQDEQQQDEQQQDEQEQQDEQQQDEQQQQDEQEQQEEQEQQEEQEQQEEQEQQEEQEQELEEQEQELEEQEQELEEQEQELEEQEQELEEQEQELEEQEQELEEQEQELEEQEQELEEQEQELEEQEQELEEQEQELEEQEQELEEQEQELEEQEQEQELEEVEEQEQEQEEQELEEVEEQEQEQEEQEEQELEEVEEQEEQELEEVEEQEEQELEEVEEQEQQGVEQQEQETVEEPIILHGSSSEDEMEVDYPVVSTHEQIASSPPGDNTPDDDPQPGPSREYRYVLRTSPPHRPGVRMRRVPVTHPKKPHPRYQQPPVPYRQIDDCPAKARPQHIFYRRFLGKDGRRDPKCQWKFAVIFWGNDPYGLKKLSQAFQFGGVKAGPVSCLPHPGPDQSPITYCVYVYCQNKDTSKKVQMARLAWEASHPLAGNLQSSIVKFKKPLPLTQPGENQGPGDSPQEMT
Vif TR-FRET = inhibitors of Vif binding to APOBEC3G peptide, primary screen, biochemical, TR-FRET, GST-Vif 1-94, biotin-A3G peptide, dose response retest (AID 1117319). Virion infectivity factor (Human immunodeficiency virus type 1 group M subtype B (isolate …. TR-FRET GST-Vif / biotin-A3G peptide binding; higher % means a stronger effect; test concentration not given here; strong numbers were not always called active. one-dose inhibition, %; IC50 in µM for titrated hits. actives 0.57% (n = 260,000);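 active = above the screen mean plus three standard deviations and confirmed in dose response; inconclusive = results disagree or hit not tested in dose response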;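 also: Vif residues 1-94 fused to GST binding biotinylated APOBEC3G peptide 110-148; 0% = full assay without inhibitor and 100% = GST in place of GST-Vif; retest series ran down from 100 µM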
* hit, by the source's call; u = inconclusive; x = not tested or not shown.

mol	E coli growth	Beta2AR agonist	Bfl-1 A1 inh	HNF4A DNA FP	UCH37 inh	LANA-H2A inh	Vif TR-FRET
CC1=C(C(=O)Nc2nc3ccccc3s2)C(c2ccco2)C(C#N)=C(SCC(=O)NC2CCCCC2)N1 (stereo unspecified)	0.75	-15	-0.2	-2.9	-337	-0.3	16%
C=CCN1C(=O)N(/C=C/C)c2cccc3cccc1c23	0.68	-4	1.3	-2.4	2.6	6.3	4%
CC1N=C(N)C(c2nc3ccccc3n2C)=C1O (stereo unspecified)	0.72	-6	-0.9	-0.8	3.6	9.4	-3%
Cc1nc2ccccn2c1C(=O)NC1CCCc2ccccc21 (stereo unspecified)	0.64	-1	1.1	1.5	0.1	2.3	-5%
COc1ccc(S(=O)(=O)N/N=C\c2ccc(OC)c(COc3ccc(C)cc3[N+](=O)[O-])c2)cc1	x	-3	-0.5	-2.5	x	1.3	-2%
Nc1ccccc1-c1nnc2n1CCCCC2	0.69	2	1.1	-0.4	4.7	-4.1	-12%
COc1ccc(/C=C/c2nc(C#N)c(NCCN(C)C)o2)cc1OC	0.65	-8	-0.1	4.0	-190	-1.5	x
c1ccc(Cn2nc(-c3ccccc3)nc2-c2ccccc2)cc1	0.68	-13	-4.3	-0.4	5.2	-3.4	5%
CCOC(=O)CN=C/C(C(=O)Nc1nccs1)=C(/C)O	0.68	9	0.4	4.0	2.4	-3.5	-2%
O=C(Nc1ncc2c(n1)-c1ccccc1OC2)c1cccc([N+](=O)[O-])c1	0.71	7	0.6	4.1	-20	1.6	0%
O=C(CCN1CCc2ccccc2C1)Nc1ccc2c(c1)OCO2	0.67	1	1.3	5.5	-0.1	-7.6	3%
O=C(O)c1ccccc1NC(c1ccccc1)c1ccc(Cl)cc1 (stereo unspecified)	x	4	-0.5	-3.1	x	3.9	x
COc1ccc(Nc2cc(Sc3ccc(OC)cc3)ncn2)cc1	0.68	-9	-1.4	7.0	0.5	2.6	-7%
COc1ccc(CCNC(=O)CN(c2cc([N+](=O)[O-])ccc2OC)S(C)(=O)=O)cc1OC	0.7	1	-0.3	0.0	2.9	0.8	-11%
O=C(NNC(=O)c1sccc1-n1cccc1)c1cccs1	0.65	-15	1.7	3.4	4.0	-0.8	x
O=C(NCC(c1cccnc1)N1CCOCC1)c1cccc(Cl)c1 (stereo unspecified)	0.65	3	0.5	-0.6	0.3	-0.9	-6%
CCCCn1c(CN(Cc2ccccc2)Cc2ccccc2)nc2c1c(=O)n(C)c(=O)n2C	0.74	0	0.1	0.4	-1.2	-0.9	2%
CCOC(=O)CC(=O)CSc1n[nH]c(=O)[nH]c1=O	0.65	-42	-0.1	-4.0	1.5	-3.6	-4%
O=C(NCCCN1CCOCC1)C1CC(=O)N(CCc2ccccc2)C1 (stereo unspecified)	0.74	2	0.4	1.9	-1.5	3.2	>100µM*
COc1ccc(OCCNS(=O)(=O)c2ccc3oc4ccccc4c3c2)cc1	0.68	3	-0.1	-0.8	0.2	-5.1	3%
COc1ccc(C(C)=O)cc1COC(=O)CCNS(=O)(=O)c1ccc(C)cc1	0.68	-3	-0.7	3.5	0.0	0.6	-5%
NC1=NC2(CCCC2)N=C(Nc2ccccc2)N1	0.7	-3	-0.2	2.0	1.1	11	-11%
CC1(C)CC(=O)c2cnc(NC(=O)CCc3ccccc3)nc2C1	0.74	-4	0.5	-1.3	-0.3	0.5	5%
N#CCC(=O)N1CCn2c1nc1ccccc12	0.83	-1	0.3	-1.4	2.9	1.2	-1%
OC1CCCN(Cc2nc(Cc3ccccc3Cl)no2)C1 (stereo unspecified)	0.7	3	1.0	1.3	1.7	-0.3	10%

Quoted at random: 2 entries already listed
mol	E coli growth	Beta2AR agonist	Bfl-1 A1 inh	HNF4A DNA FP	UCH37 inh	LANA-H2A inh	Vif TR-FRET
CCOC(=O)CC(=O)CSc1n[nH]c(=O)[nH]c1=O	0.65	-42	-0.1	-4.0	1.5	-3.6	-4%
NC1=NC2(CCCC2)N=C(Nc2ccccc2)N1	0.7	-3	-0.2	2.0	1.1	11	-11%

Following part:
mol	E coli growth	Beta2AR agonist	Bfl-1 A1 inh	HNF4A DNA FP	UCH37 inh	LANA-H2A inh	Vif TR-FRET
Cc1ccc(CCNC(=O)c2ccc(CS(=O)(=O)Cc3ccccc3F)o2)cc1	0.7	0	0.2	1.9	3.4	-3.0	17%
Nc1nc(CC(=O)CSc2ccc(Cl)cc2)nc(Nc2ccc(F)cc2)n1	0.71	x	0.0	x	0.3	5.6	x
COc1ccccc1Cn1cnc2cccnc21	0.65	-7	0.7	3.0	1.0	-3.9	3%
COc1ccc(C(=O)NN=C(Cc2ccccc2)Cc2ccccc2)cc1OC	0.7	15	-0.1	0.8	3.7	-0.3	10%
Cc1c(O)c(=O)ccn1Cc1ccccc1	0.65	-7	3.4	0.3	1.5	0.5	-4%
O=C(CCn1c(=O)oc2ccccc21)Nc1ccc2c(c1)OCCO2	0.73	-3	0.5	1.1	5.8	-11	x
O=c1cc(CN2CCC3(CC2)OCCO3)c2c(ccc3ccccc32)o1	0.73	-6	-0.6	0.0	2.7	0.6	5%
COc1cccc(C2C(C(=O)c3cccs3)=C(O)C(=O)N2c2cc(C)on2)c1 (stereo unspecified)	0.69	0	0.4	-2.4	5.6	1.9	-1%
COc1cccc(-n2nc(-c3ccnn3-c3ccc(F)cc3)c(=O)n(C)c2=O)c1	0.78	-6	-0.4	1.1	4.5	2.7	-1%
O=C(CNC(=O)c1cccs1)NCC(=O)OCc1c(Cl)cccc1Cl	0.7	2	-0.6	-0.8	3.7	-1.1	-3%
Cc1cc(NC(=O)c2ccc(F)cc2)ccc1NC(=O)c1ccco1	0.63	22	-7.1	5.3	0.4	-2.8	x
CC12CCC(C(=O)Nc3ccccc3-n3cccc3)(CC1=O)C2(C)C (stereo unspecified)	0.74	7	-0.2	0.8	2.4	2.0	x
COc1ccc(-n2c(=S)[nH]c3sc4c(c3c2=O)CCc2ccccc2-4)cc1	0.67	x	-1.1	x	2.3	-0.8	x
CC(C)(C)c1nc(-c2ccccc2)nc2c1OCCC2	0.69	2	-0.1	-1.3	2.5	5.5	x
O=C(CN1CCN(S(=O)(=O)c2ccc(Br)cc2)CC1)N/N=C/c1ccc(Br)s1	x	-6	-0.4	3.8	x	-0.2	x
COc1ccc(C(C(=O)Nc2ccc(C(C)C)cc2)N(C)C(=O)c2ccc(=O)[nH]c2)cc1 (stereo unspecified)	0.66	-4	0.7	1.2	3.7	1.2	-5%
CN(C)c1ccc(-c2ccc3c(=O)c4ccccc4n(C)c3c2)cn1	0.8	-4	0.8	11	-19	0.9	x
C=CCN(c1cccc(C(F)(F)F)c1)S(=O)(=O)c1cccc(C(=O)OCC(=O)NCCC)c1	0.69	-3	0.4	0.9	4.3	-2.3	-1%
C=CCOc1ccc(/C=C/C(=O)OCC(=O)NCc2cccs2)cc1	0.71	-5	-0.9	-0.8	4.5	-6.0	-2%
O=C1c2ccccc2NC(c2ccccc2O)N1NS(=O)(=O)c1ccccc1 (stereo unspecified)	0.68	-1	-0.1	-4.0	-144	-1.7	-3%
COc1ccc(CCNC(=O)CCC(=O)c2cccs2)cc1OC	0.67	4	0.1	-0.6	2.3	-1.5	0%
c1ccc(Cc2nnc3sc(-c4ccncc4)nn23)cc1	0.64	0	0.2	-0.6	1.1	3.7	5%
O=C(Nc1ccc(F)cc1)NC1CCCCCCC1	0.67	-8	0.7	-1.3	5.3	1.3	x
COC(=O)C1=C(C)OC(N)=C(C#N)C1C1CCCCC1 (stereo unspecified)	0.71	-9	-0.5	0.9	1.6	-4.3	-2%
CCOc1ccc(NC(=O)CN(C)C(=O)c2ccccc2OCc2cccc(C)c2)cc1OCC	0.69	-5	-0.6	-3.0	1.2	0.9	-16%
CC(=O)c1cc(C#N)c(SCC(=O)OC(C)C)nc1C	0.66	5	0.3	-1.0	2.8	-0.5	8%
CC(C)(Cc1ccc(O)cc1)NC(=O)CC(=O)N/N=C/c1ccc([N+](=O)[O-])cc1	x	-4	-0.3	-1.4	x	-2.9	-4%
O=C(CNC(=O)C1CCCCC1)Nc1cc(Cl)cc(Cl)c1	0.72	-7	0.1	-3.1	1.8	-5.8	-3%
COCCCn1c(CCC(=O)O)ccc1-c1ccc(F)cc1	0.75	2	0.4	2.4	-202	0.3	-1%
Cc1cc(NC(=O)COC(=O)[C@H](Cc2ccccc2)NC(=O)c2ccco2)no1	0.68	3	x	-5.0	-0.8	x	-1%
CC12CCC(c3nnc(SCC(=O)Nc4cccc5ccccc45)nc31)C2(C)C (stereo unspecified)	0.66	-5	-0.4	2.6	2.8	-2.4	3%
COC(=O)c1ccc(OS(=O)(=O)N(C)C)cc1	0.7	4	-0.5	-0.3	4.2	0.9	-9%
CC(NC(=O)COC(=O)c1ccc[nH]c1=O)c1ccccc1 (stereo unspecified)	0.67	4	0.0	-0.2	-2.6	-7.0	-6%
O=C(CN1C(=O)c2ccccc2S1(=O)=O)Nc1ccccc1	0.69	-9	0.3	-2.2	-0.1	2.7	22%
OCCCNC(=S)Nc1ccc(Nc2ccccc2)cc1	0.71	-6	0.6	7.1	-0.5	-1.2	32%
COc1ccc(Cc2nc3ccc(C(=O)NC(C)c4cn(C)nc4C)cc3o2)cc1 (stereo unspecified)	0.67	-2	1.2	-2.8	3.5	1.5	x
Cc1ccc(N(CC(N)=O)C2SC(=O)NC2=O)cc1 (stereo unspecified)	0.68	-5	-0.2	-0.2	0.7	22*	-5%
COc1ccc(-c2cc(C(F)(F)F)n3nc(C)cc3n2)cc1	0.67	0	-0.1	-1.7	-16	1.8	-1%
CC1Cc2ccccc2N1C(=O)c1ccc2nccnc2c1 (stereo unspecified)	0.63	-9	0.4	-0.7	5.9	-7.5	x
Cc1cc(C)n(-c2nc(N(c3ccccc3)c3ccccc3)nc(-n3nc(C)cc3C)n2)n1	0.75	33	0.5	-0.4	4.1	4.9	7%
COc1cc(OC)cc(-c2nnc(SCC(=O)N3CCCCC3)o2)c1	0.73	-1	-2.3	2.0	2.2	2.0	-5%
CC(NCc1cccs1)C(=O)NC1CCCCC1 (stereo unspecified)	0.7	-1	0.1	0.5	2.6	-0.2	u
O=C(CN1CCN(Cc2ccccc2)CC1)NC(=O)NCc1ccco1	0.74	-2	0.6	-3.9	1.4	-0.8	3%
Nc1nn(-c2cccc(F)n2)cc1-c1ccccc1	0.64	-6	x	39*	2.8	x	-4%

Ordered by molecular weight (largest number first): 3 of the compounds above
mol	E coli growth	Beta2AR agonist	Bfl-1 A1 inh	HNF4A DNA FP	UCH37 inh	LANA-H2A inh	Vif TR-FRET
CC(C)(Cc1ccc(O)cc1)NC(=O)CC(=O)N/N=C/c1ccc([N+](=O)[O-])cc1	x	-4	-0.3	-1.4	x	-2.9	-4%
O=C(CN1CCN(Cc2ccccc2)CC1)NC(=O)NCc1ccco1	0.74	-2	0.6	-3.9	1.4	-0.8	3%
COC(=O)c1ccc(OS(=O)(=O)N(C)C)cc1	0.7	4	-0.5	-0.3	4.2	0.9	-9%

No enrichment for hits. Share with any hit: about 2.1%.
